LANA-H2A inh: blocks KSHV LANA binding to histone H2A/H2B; Q9QR71; cell-free LANA-H2A/H2B peptide, fluorescence polarization; 320,000 compounds, 0.6% hits; inhibition, % (test concentration not listed); AID 2629; in the data active = inhibition mostly above about 10%, no sharp cut-off; inactive = mostly below about 6.7%;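 note: stock transfer was 7.5 nL into about 10 µL; 0% = median of vehicle wells and 100% = median of positive control wells; one replicate is shown; the record names a cut of 25% in any replicate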
Target sequence (Q9QR71 whole entry, looked up): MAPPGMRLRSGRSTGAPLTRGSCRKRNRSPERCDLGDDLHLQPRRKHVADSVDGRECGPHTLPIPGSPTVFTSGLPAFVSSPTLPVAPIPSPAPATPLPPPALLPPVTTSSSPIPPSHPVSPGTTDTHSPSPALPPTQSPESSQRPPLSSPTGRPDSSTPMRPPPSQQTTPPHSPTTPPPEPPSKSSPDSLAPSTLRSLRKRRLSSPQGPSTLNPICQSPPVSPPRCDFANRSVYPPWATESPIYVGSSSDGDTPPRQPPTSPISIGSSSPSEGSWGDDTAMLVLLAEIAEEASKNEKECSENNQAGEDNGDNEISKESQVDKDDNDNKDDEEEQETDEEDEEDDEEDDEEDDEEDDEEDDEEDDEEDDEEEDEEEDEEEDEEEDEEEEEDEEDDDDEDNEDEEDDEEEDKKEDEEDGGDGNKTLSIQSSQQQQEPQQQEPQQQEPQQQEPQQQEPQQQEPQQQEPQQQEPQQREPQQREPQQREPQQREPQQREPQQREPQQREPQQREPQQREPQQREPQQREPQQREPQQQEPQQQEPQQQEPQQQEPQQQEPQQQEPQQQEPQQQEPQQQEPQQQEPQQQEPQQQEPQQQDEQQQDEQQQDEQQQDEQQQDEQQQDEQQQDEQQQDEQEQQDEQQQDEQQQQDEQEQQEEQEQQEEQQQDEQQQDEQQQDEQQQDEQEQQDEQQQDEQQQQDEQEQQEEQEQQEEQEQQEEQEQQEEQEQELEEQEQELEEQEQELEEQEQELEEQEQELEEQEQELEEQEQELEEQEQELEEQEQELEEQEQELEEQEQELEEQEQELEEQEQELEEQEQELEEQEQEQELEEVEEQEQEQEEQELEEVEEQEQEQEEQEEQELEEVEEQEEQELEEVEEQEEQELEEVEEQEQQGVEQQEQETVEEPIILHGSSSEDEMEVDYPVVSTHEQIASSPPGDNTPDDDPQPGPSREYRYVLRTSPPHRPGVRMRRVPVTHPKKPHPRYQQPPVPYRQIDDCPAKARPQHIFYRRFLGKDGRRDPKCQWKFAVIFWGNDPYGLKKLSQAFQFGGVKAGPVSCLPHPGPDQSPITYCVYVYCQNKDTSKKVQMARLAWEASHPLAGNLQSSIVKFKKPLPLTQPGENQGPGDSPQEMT
MLL AF4-AF9 inh: inhibitors of human MLL-AF4/AF9 interaction. 350,000 compounds, 0.47% hits. inhibition, % at 10 µM. AID 651704. AlphaScreen, biotin-AF4 peptide binding to FLAG-AF9;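 active = every replicate reaching a set inhibition limit, whatever the replicate mean, cut at about 25% in these data; inconclusive = mean inhibition reaches that limit but some replicates miss it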;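 note: 0% = plate neutral control median and 100% = total signal loss; the record names both 10 and 1 µM as test concentration; the first replicate is given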
Calb FLC: C. albicans growth modulation with fluconazole; 300,000 compounds, 0.57% hits; growth inhibition, % (concentration not given with the values); C. albicans CaCi-2 (fluconazole-resistant clinical isolate) + fluconazole, Alamar Blue growth, 48 h;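 active = most replicates above 75%; inconclusive = exactly half above 75%; inactive = most below 75%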;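 note: all wells also contain fluconazole at 8 µg/ml as a sub-toxic cotreatment; 0% = median of DMSO wells and 100% = median of geldanamycin control wells; wells of about 8 µL received 7.5 nL stock; the first replicate is given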
Vif A3G: inhibitors of Vif binding to APOBEC3G peptide, primary screen, biochemical, TR-FRET, GST-Vif 1-94, biotin-A3G peptide, dose response retest (AID 1117319). TR-FRET GST-Vif / biotin-A3G peptide binding; higher % means a stronger effect; test concentration not given here; strong numbers were not always called active. 260,000 compounds, 0.57% hits. one-dose inhibition, %; IC50 in µM for titrated hits;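 active = above the screen mean plus three standard deviations and confirmed in dose response; inconclusive = results disagree or hit not tested in dose response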;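 note: Vif residues 1-94 fused to GST binding biotinylated APOBEC3G peptide 110-148; 0% = full assay without inhibitor and 100% = GST in place of GST-Vif; retest series ran down from 100 µM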
Bfl-1 A1 inh: inhibitors of the anti-apoptotic protein A1, read as caspase activation; caspase activation, % (no concentration beside the values); MEF A1-2A-BIM cells, Caspase-Glo 3/7 luminescence, 3 h; percent of clofoctol response, vehicle zero; 330,000 compounds, 0.066% hits;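 active = over half of replicate activation scores above 10%, or exactly half above 10 with the replicate mean above 10; inconclusive = replicate mean below 10 yet half the replicates above 10; inactive = over half of replicates below 10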;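 note: wells of about 30 µL received 50 nL stock; many hits fall short of the cut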
RanGTP-Imp inh: disruptors of Ran-importin-beta complex formation – biochemical, FRET, CFP-Ran, YFP-importin-beta, homogeneous, primary screen; cell-free CFP-Ran/YFP-importin-beta FRET ratio; inhibition, % (concentration not given with the values); 300,000 compounds, 1.1% hits; AID 2216;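 active = most replicates above 15%; inconclusive = exactly half above 15%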;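 note: 0% = DMSO wells and 100% = Ran loaded with GDP instead of GTP; wells of about 40 µL received 100 nL stock; the first replicate is given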
Beta apoptosis: beta cell apoptosis inhibition; INS-1E cytokine-induced death, ATP luminescence, 48 h; percent of positive-control rescue, neutral wells zero; 300,000 compounds, 0.8% hits; protection from apoptosis, % (concentration not given with the values);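 active = all replicates at 75% or more, or half of them and the mean; inconclusive = half reach 75% but not the mean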;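 note: 0% = cytokine-treated negative control wells and 100% = positive control rescue; higher means more ATP so stronger rescue from cytokine killing; wells of about 40 µL received 100 nL stock; the first replicate is given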
T cruzi repl: T. cruzi replication inhibition. 300,000 compounds, 1.4% hits. inhibition, % (no concentration beside the values). T. cruzi beta-gal in NIH3T3, luminescence, 90 h;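 active = mean inhibition across valid replicates above about 55%, limit read from the data; inconclusive = mean below that limit but half or more replicates reach it; inactive = mean below it, under half of replicates reach it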;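 note: signal also drops with host cell toxicity which is not excluded here; 0% = plate median of DMSO wells and 100% = zero luminescence signal; higher percent means less beta-gal luminescence so fewer parasites; stock transfer was 50 nL into about 50 µL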
Active calls of the source: *; ? = inconclusive; nt = no result given. Random draw from the library; 4.3% or so of the library scored in one or more.

SMILES	LANA-H2A inh	MLL AF4-AF9 inh	Calb FLC	Vif A3G	Bfl-1 A1 inh	RanGTP-Imp inh	Beta apoptosis	T cruzi repl
Cc1ccc(-c2nn(-c3ccccc3)cc2/C=N/NC(=O)CSc2nnc(C)n2-c2ccccc2)cc1	7.3	nt	-8	1%	0.2	-2.1	4	23
CCN(C(=O)COC(=O)c1ccc2ccccc2c1)c1c(N)n(Cc2ccccc2)c(=O)[nH]c1=O	-0.7	2.4	nt	0%	1.3	nt	3	nt
C[C@H](NC(=O)c1nc[nH]c1C(=O)N(C)Cc1ccccc1)C(=O)OC(C)(C)C	-5.0	-0.6	nt	nt	-0.9	nt	-3	nt
Cc1cc(C)cc(N(CC(=O)NC2CCCC2)C(=O)CNC(=O)c2cccs2)c1	15	0.8	10	nt	0.2	2.4	-2	8
COc1cccc(NC(=O)CN(C)C(=O)c2ccccn2)c1	-2.9	0.5	nt	nt	0.5	nt	-1	nt
COc1ccccc1/C=N/NC(=O)c1nnn(-c2nonc2N)c1-c1cccs1	3.8	nt	-4	nt	0.1	6.8	-11	5
Cc1cc2c(cc1[N+](=O)[O-])NC(CNC(C)C)CC2 (stereo not given)	2.1	14	-7	?	-0.7	4.0	3	-4
COc1ccccc1NC(=S)NNC(=O)c1nn(C)c(C)c1Cl	0.1	nt	5	12%	0.0	0.0	-3	4
CCOC(=O)C1CCCN(C(=O)/C=C/c2ccc([N+](=O)[O-])cc2)C1 (stereo not given)	1.0	2.1	2	nt	-1.3	-0.1	0	-1
Cc1ccnn1C(C)C(=O)O (stereo not given)	-2.5	-1.5	2	31%	0.2	0.3	-2	-3
COc1ccc(OCC(=O)Nc2cccc3cccnc23)cc1	0.1	nt	3	0%	0.3	-1.0	4	-3
COc1ccccc1C(=O)NC(=O)COC(=O)C1(C)CC1(Cl)Cl (stereo not given)	1.3	-0.1	-1	1%	-1.1	-1.0	0	-12
CN(c1ccccc1)S(=O)(=O)c1ccc(C(=O)OCC(=O)NCc2cccs2)cc1	0.7	-15	9	nt	0.4	-1.1	3	12
O=C(C1CCN(S(=O)(=O)c2c(Cl)cccc2Cl)CC1)N1CCCC1	6.6	-1.4	nt	-2%	1.8	nt	-2	nt
O=C(/C=C/c1cccc([N+](=O)[O-])c1)Nc1ccc(NC(=O)c2cccs2)cc1	nt	nt	-10	nt	-0.2	-1.7	-3	18
O=C(CCc1nnc2ccc(NCc3ccco3)nn12)Nc1ccccn1	-1.5	1.2	7	nt	2.3	4.8	-3	4
CC(C)CNC(=O)[C@H](Cc1ccccc1)NC(=O)c1cccs1	-6.3	2.9	2	nt	0.9	1.3	5	0
Cc1nn(CCC(=O)NNC(=S)Nc2ccccc2)c(C)c1Br	-2.6	2.0	27	5%	0.5	-1.3	1	-13
CCOC(=O)NCc1ccccc1	3.2	nt	2	nt	0.0	3.1	-11	-5
CC(C)=NOc1nc(N(C)C)nc(N2CCOCC2)n1	-0.1	0.0	3	11%	0.6	5.2	0	14
COc1ccc(OC)c(-c2csc(NC(=O)Cc3ccccc3)n2)c1	7.0	2.2	-3	nt	-0.7	0.4	-2	8
CCN1C(=NCCc2ccccn2)N[C@@H](c2cccc(F)c2)C(C(=O)OC)=C1C	1.7	-0.4	-1	nt	-0.1	-0.8	-6	-10
O=C(CSCc1ccco1)N1CCc2ccccc21	0.3	nt	-7	nt	-5.5	-6.4	-2	1
O=c1[nH]c(CN2CCN(c3ccccc3O)CC2)nc2ccccc12	-3.3	nt	8	9%	0.3	0.4	-4	7
O=C(c1cc2ccccc2oc1=O)N(Cc1ccccc1)C1CCS(=O)(=O)C1 (stereo not given)	-0.3	nt	15	7%	0.1	2.1	2	-6
Cc1ccc(Nc2nc(Nc3ccc(C)cc3)nc(SC3=NCCS3)n2)cc1	-0.9	nt	?	0%	0.7	-3.5	24	29
Cc1ccc(C)c(S(=O)(=O)NCCC(=O)N2CCCC(C(N)=O)C2)c1 (stereo not given)	-0.9	-1.6	nt	nt	1.4	nt	-4	nt
O=C(/C=C(\O)c1ccccc1)C(=O)NNC(=O)c1ccccc1[N+](=O)[O-]	-1.8	-3.2	-6	nt	1.1	-1.1	-1	-2
Cc1cc(C)nc(N(C#N)Cc2cccc3ccccc23)n1	-2.6	nt	32	-3%	0.5	0.0	-1	7
Cc1ccccc1Nc1nnc(C)c(=O)[nH]1	-3.1	nt	-5	-3%	0.8	3.9	0	-9
O=C(CNS(=O)(=O)c1ccccc1)NCC(=O)OCc1ccc(Br)cc1	3.3	3.1	2	11%	2.0	-2.8	0	-3
CC(=O)Nc1ccc(S(=O)(=O)NCCc2csc(C)n2)cc1	-2.0	nt	-8	nt	-0.6	-0.1	2	-9
O=C(CCCn1c(SCC(=O)NCCc2ccccc2)nc2ccccc2c1=O)NCC1CCCO1 (stereo not given)	-0.2	-0.1	16	1%	-0.6	0.5	-5	12
CC(=O)C1=C(C)NC(C)=C(C(C)=O)C1c1cn(-c2ccccc2)nc1-c1cccs1	-1.0	nt	-6	0%	-0.8	6.6	-7	-2
COc1ccccc1-n1c(SCC(=O)N2CCc3ccccc32)nc2c(c1=O)SCC2	3.9	-15	2	7%	0.6	-0.7	2	30
COc1cc(C)ccc1OCc1cc(C(=O)N(C)CCCN2CCOCC2)no1	-0.2	2.3	17	nt	-0.2	3.9	-5	5
O=C(CC1SC(N2CCCC2)=NC1=O)Nc1ccc(C(=O)NCCc2ccc(F)cc2)cc1 (stereo not given)	-2.4	-8.2	19	0%	-0.3	-3.1	2	-7
CN(CCc1ccccc1)C(=O)c1cc(COc2cccc(C(F)(F)F)c2)on1	nt	-15	6	nt	nt	-7.2	nt	27
Cc1cc(S(=O)(=O)N2CCCC2C(=O)N2CCOCC2)c(C)cc1Cl (stereo not given)	3.9	nt	33	1%	-0.3	5.8	2	-12
CC1CN(S(=O)(=O)c2cccc(C(=O)Nc3ccccc3N3CCCC3)c2)CC(C)O1 (stereo not given)	4.0	14	-7	1%	0.1	-2.3	7	4
COc1cc(NC(=O)CN2CCCCCC2)cc(OC)c1	-0.9	2.8	9	nt	0.1	1.4	1	6
Cc1cc(C)c(C)c(OCC(O)CN2CCN(c3ccccn3)CC2)c1 (stereo not given)	-5.7	1.6	-13	nt	1.1	4.5	-3	-6
Cc1ccc(C(=O)CSc2nc3ccccc3c(=O)[nH]2)cc1	2.0	nt	33	2%	-1.0	3.5	-1	11
CC(C)(C)C(=O)NC(=S)Nc1sc2c(c1C(N)=O)CCC2	-9.8	-4.4	38	nt	-0.4	-0.9	2	13
O=C(CN1CCC(NC(=O)c2ccccc2F)CC1)NCc1ccc(F)cc1	6.7	nt	4	-1%	-1.0	0.6	-2	0
O=C(O)CCCCCCNS(=O)(=O)c1ccccc1	-3.9	nt	-2	-3%	0.3	-2.0	1	-15
O=C(N/N=C/c1ccc[nH]1)c1ccccc1O	-5.6	2.2	8	nt	-4.7	2.7	15	-3
Cc1ccc(C(=O)NC2CCN(C(=O)NCc3ccccc3)CC2)cc1	-2.3	-0.5	-3	nt	-2.3	-1.0	-3	-4
CN(CC(=O)Nc1ccccc1Cl)C(=O)c1cc(-c2cccs2)nn1-c1ccccc1	-2.1	-0.7	13	-7%	-0.5	0.8	-4	10
O=C(COC(=O)COc1cccc(C(F)(F)F)c1)NC1CCCC1	-3.5	4.7	6	-5%	0.6	-0.3	-7	0
O=c1c(O)c(-c2ccc3c(c2)OCO3)oc2ccccc12	2.3	nt	27	-3%	-0.1	32*	0	6
COc1cc(C(=O)OCC(=O)Nc2cc(-c3cc(C)c(C)cc3C)nn2-c2ccccc2)cc(OC)c1OC	2.8	1.3	?	nt	-0.6	1.8	-4	42
Nc1c(C(=O)NC2CCCC2)c2nc3ccccc3nc2n1N	2.5	nt	-5	1%	-0.1	39*	nt	9
O=C(Nc1nc2c(s1)CN(Cc1ccccc1)CC2)C1CCC1	-1.0	1.3	-10	20%	0.1	1.9	-2	0
CCOC(=O)c1cn2nc(-c3ccc(OCC)cc3)cc2nc1C1CCN(C(=O)OC(C)(C)C)CC1	0.7	nt	3	-1%	-0.3	1.8	0	47
Cc1c(OC(C)C(=O)NCc2ccccn2)ccc2c3c(c(=O)oc12)CCCC3 (stereo not given)	-2.4	-16	4	nt	-0.2	1.2	nt	14
CSC1=NCCN1C(=O)Cc1ccc(F)cc1	-2.1	-0.6	-2	8%	-0.6	4.5	-1	-2
O=C(OCc1nnc(-c2ccccc2)o1)C1CC(=O)N(c2ccccc2)C1 (stereo not given)	2.7	-3.5	3	nt	-1.3	5.2	-3	-5
CC(C)c1ccc2[nH]c3c(c2c1)[C@@H]1CCN2C(=O)CCC[C@H](C3)[C@H]12	-1.5	?	5	nt	0.3	-0.1	8	41
O=C(CCn1c(=O)oc2cc(Cl)ccc21)Nc1ccc(N2CCOCC2)cc1	0.4	1.2	-5	nt	0.5	-0.1	0	3
The results go on:
SMILES	LANA-H2A inh	MLL AF4-AF9 inh	Calb FLC	Vif A3G	Bfl-1 A1 inh	RanGTP-Imp inh	Beta apoptosis	T cruzi repl
CC(=O)N1c2c(cc(Br)cc2S(=O)(=O)N2CCOCC2)CC1C (stereo not given)	-4.2	nt	7	68%	2.2	?	3	-7
CCC(C)N(C(=O)COC(=O)c1[nH]c(C)c(C(C)=O)c1C)C1CCS(=O)(=O)C1 (stereo not given)	5.2	nt	2	-6%	0.5	4.0	-1	4
O=C(CN1C(=O)COc2ccc(S(=O)(=O)N3CCCC3)cc21)N1CCCC1	2.7	4.6	-1	nt	0.3	-4.7	2	20
COc1cccc(-c2ccc(-c3noc(-c4cccs4)n3)c(OC)n2)c1	0.2	nt	0	?	1.0	2.4	2	nt
COC(=O)Cn1nc(-c2ccccc2)c2cc(Cl)ccc21	-1.9	nt	28	?	-0.1	-5.5	-1	-1
CCOc1ncccc1C(=O)OCC(=O)c1ccc[nH]1	2.8	nt	6	24%	0.0	1.0	-7	-7
O=C(NC1=NCCS1)C1CC2CCC1C2 (stereo not given)	-1.7	nt	6	64%	-1.1	-0.4	-10	5
O=C1CCCC(=O)C1C(=O)C1CCN(S(=O)(=O)c2ccccc2)CC1	-1.1	-3.2	21	-8%	0.6	3.5	-10	3
CCCS(=O)(=O)N1CCCC(C(=O)c2ccccc2OC)C1 (stereo not given)	-0.5	-1.4	19	0%	0.2	-0.8	-2	-5
O=C(COc1ccc(Nc2ccccc2)cc1)Nc1ccncc1	-2.4	4.9	-1	-9%	0.0	-2.3	nt	16
N#Cc1ccc(-c2ccc(Cl)cc2)nc1Oc1ccc(F)cc1	6.8	nt	7	-1%	0.1	-2.8	7	14
Nc1ccc(OCCc2ccccc2)cc1	-6.6	4.1	3	nt	-0.5	-0.3	7	35
COc1ccc2oc(C(=O)OCC(=O)N3CCCCC3C)c(C)c2c1 (stereo not given)	2.4	-6.1	nt	nt	0.8	nt	-5	nt
C[n+]1ccc(/C=C/c2c[nH]c3ccc(F)cc23)cc1	-125	1.5	42	-3%	0.5	-156	58	?
CCCN(CCC)CCCNC(=O)CS(=O)Cc1nc(-c2ccc(OC)c(OC)c2)oc1C (stereo not given)	-0.6	nt	2	-3%	0.7	-4.0	-5	-15

Assay outcomes deposited in PubChem BioAssay by several laboratories.
